Source: PubChem BioAssay (several laboratories)
LANA-H2B inh: blockers of LANA interaction with H2A/H2B – biochemical, FP readout, HTS, primary screen. Protein LANA1 (Human herpesvirus 8 type P (isolate GK18)), Q9QR71. cell-free LANA-H2A/H2B peptide, fluorescence polarization. inhibition, % (concentration not given with the values). 0.6% of 320,000 active. AID 2629, 2010; in the data active = inhibition mostly above about 10%, no sharp cut-off; inactive = mostly below about 6.7%;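 also: stock transfer was 7.5 nL into about 10 µL; 0% = median of vehicle wells and 100% = median of positive control wells; one replicate is shown; the record names a cut of 25% in any replicate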
T cruzi repl: inhibitors of intracellular T. cruzi growth, primary screen, luminescence, NIH3T3 host cells. 1.4% of 300,000 active. AID 1885, 2009. inhibition, % (concentration not given with the values). T. cruzi beta-gal in NIH3T3, 90 h;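 active = mean inhibition across valid replicates above about 55%, limit read from the data; inconclusive = mean below that limit but half or more replicates reach it; inactive = mean below it, under half of replicates reach it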;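 also: signal also drops with host cell toxicity which is not excluded here; 0% = plate median of DMSO wells and 100% = zero luminescence signal; higher percent means less beta-gal luminescence so fewer parasites; stock transfer was 50 nL into about 50 µL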
Calb FLC: C. albicans growth inhibition with fluconazole, primary screen, CaCi-2 strain, Alamar Blue fluorescence; C. albicans CaCi-2 (fluconazole-resistant clinical isolate) + fluconazole, 48 h; growth inhibition, % (test concentration not listed); 0.57% of 300,000 active;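 active = most replicates above 75%; inconclusive = exactly half above 75%; inactive = most below 75%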;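 also: all wells also contain fluconazole at 8 µg/ml as a sub-toxic cotreatment; 0% = median of DMSO wells and 100% = median of geldanamycin control wells; wells of about 8 µL received 7.5 nL stock; the first replicate is given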
A1 inh: caspase 3/7 activation in MEF A1-2A-BIM cells, primary screen, A1 inhibitor project, cell-based, luminescence, HTS; AID 2462, 2010; Caspase-Glo 3/7 luminescence, 3 h; percent of clofoctol response, vehicle zero; 0.066% of 330,000 active; caspase activation, % (test concentration not listed);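 active = over half of replicate activation scores above 10%, or exactly half above 10 with the replicate mean above 10; inconclusive = replicate mean below 10 yet half the replicates above 10; inactive = over half of replicates below 10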;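 also: wells of about 30 µL received 50 nL stock; many hits fall short of the cut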
Beta cell apopt: inhibitors of cytokine-induced beta cell apoptosis, primary screen, luminescence. INS-1E cytokine-induced death, ATP luminescence, 48 h; percent of positive-control rescue, neutral wells zero. protection from apoptosis, % (no concentration beside the values). 0.8% of 300,000 active. AID 435005, 2010;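 active = all replicates at 75% or more, or half of them and the mean; inconclusive = half reach 75% but not the mean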;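 also: 0% = cytokine-treated negative control wells and 100% = positive control rescue; higher means more ATP so stronger rescue from cytokine killing; wells of about 40 µL received 100 nL stock; the first replicate is given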
UCH37 inh: inhibitors of human UCH37 deubiquitinase, primary screen, biochemical, Ub-AMC cleavage, fluorescence. 0.33% of 330,000 active. inhibition, % (concentration not given with the values). Ubiquitin carboxyl-terminal hydrolase isozyme L5 (Homo sapiens), Q9Y5K5. purified proteasome/UCH37;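 active = mean of two replicates above 20%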;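 also: 0% = compound-free wells with enzyme and 100% = wells lacking proteasome; stock transfer was 100 nL into about 20 µL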
Target sequence (Q9Y5K5 whole entry, looked up): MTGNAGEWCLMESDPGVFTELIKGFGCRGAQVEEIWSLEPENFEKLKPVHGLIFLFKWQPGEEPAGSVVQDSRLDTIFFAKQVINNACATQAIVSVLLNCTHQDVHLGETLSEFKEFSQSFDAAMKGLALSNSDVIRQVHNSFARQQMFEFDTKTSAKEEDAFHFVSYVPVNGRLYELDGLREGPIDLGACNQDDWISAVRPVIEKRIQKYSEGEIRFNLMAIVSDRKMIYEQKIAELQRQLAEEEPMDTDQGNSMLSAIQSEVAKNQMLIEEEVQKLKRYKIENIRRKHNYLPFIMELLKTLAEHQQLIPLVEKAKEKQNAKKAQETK
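system = Proteasome-associated human UCH37 deubiquitinase | amount = 0.15 nM proteasome as dispensed | medium = pH 7.4 Tris-HCl (50 mM) with ovalbumin, ATP-MgCl2, DTT | incubation = 30 min preincubation with enzyme, 25 min cleavage at room temperature | detection = AMC fluorescence 355/460 nm | read-out basis = percent inhibition | controls = no-proteasome and no-compound wells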
B2AR ag: beta2AR agonists driving receptor internalization, primary screen, cell-based, FAP fluorogen, flow cytometry; Beta-2 adrenergic receptor (Homo sapiens), P07550; Am2.2-beta2AR cells; reference of the scale not given here; response, % (no concentration beside the values); 0.43% of 340,000 active;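 active = response above a set limit, near 3 SD of response in nonfluorescent compounds, cut at about 42% in these data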;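 also: stock transfer was 100 nL into about 11 µL; a reference agonist was the positive control; negative values mostly stem from fluorescent compounds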
Target sequence (P07550 whole entry, looked up): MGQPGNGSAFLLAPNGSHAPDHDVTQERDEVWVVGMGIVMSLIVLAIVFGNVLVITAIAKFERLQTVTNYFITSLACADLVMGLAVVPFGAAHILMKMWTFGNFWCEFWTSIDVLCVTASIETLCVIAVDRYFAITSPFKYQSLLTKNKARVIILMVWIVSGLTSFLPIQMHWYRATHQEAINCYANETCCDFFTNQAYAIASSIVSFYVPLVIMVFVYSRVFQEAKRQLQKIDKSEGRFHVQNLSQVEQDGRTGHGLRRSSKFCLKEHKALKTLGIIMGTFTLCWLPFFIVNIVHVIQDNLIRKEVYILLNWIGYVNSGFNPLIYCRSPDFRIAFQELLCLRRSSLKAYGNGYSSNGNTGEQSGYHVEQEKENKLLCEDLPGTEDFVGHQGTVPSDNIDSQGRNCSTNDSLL
RanGTP-Imp inh: inhibitors of RanGTP-importin-beta interaction, primary screen, biochemical, FRET, CFP-Ran, YFP-importin-beta, homogeneous; Ran GTPase (GTP-bound) - importin-beta complex; inhibition, % (no concentration beside the values); cell-free CFP-Ran/YFP-importin-beta FRET ratio; 1.1% of 300,000 active;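 active = most replicates above 15%; inconclusive = exactly half above 15%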;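 also: 0% = DMSO wells and 100% = Ran loaded with GDP instead of GTP; wells of about 40 µL received 100 nL stock; the first replicate is given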
* = called active by the depositor.

Results for Cc1cccc(NC(=S)N2CCC(C(N)=O)(N3CCCCC3)CC2)c1C ?
LANA-H2B inh: -0.9; T cruzi repl: -10.4; Calb FLC: -4.4; A1 inh: 0.5; Beta cell apopt: -6.2; UCH37 inh: 0.9; B2AR ag: 0.5; RanGTP-Imp inh: 0.7

What do the screens show for `Cc1ccc(F)cc1NC(=O)/C=C/c1ccc(S(=O)(=O)N2CCOCC2)cc1`?
LANA-H2B inh: -0.4; A1 inh: 0.5; Beta cell apopt: 3.7; UCH37 inh: 3.6; B2AR ag: 8.1

Results for O=C1CC(=O)Nc2cc(S(=O)(=O)Nc3cccc(C(F)(F)F)c3)ccc2N1 ?
LANA-H2B inh: 7.1; T cruzi repl: -11.0; Calb FLC: -1.0; A1 inh: -0.2; Beta cell apopt: -9.4; UCH37 inh: -1.2; B2AR ag: 2.6; RanGTP-Imp inh: 3.2

Results for O=C(c1cccc(F)c1)N1CCN=C1SCc1cccnc1 ?
LANA-H2B inh: -0.2; T cruzi repl: 3.8; Calb FLC: 7.2; A1 inh: 0.7; UCH37 inh: 4.2; B2AR ag: 3.0; RanGTP-Imp inh: 5.8

What do the screens show for `CC(C)(C)c1ccc(/C=N/NC(=S)NCc2ccccc2)cc1`?
T cruzi repl: 48.1; Calb FLC: 1.1; A1 inh: 1.5; Beta cell apopt: 6.3; B2AR ag: -2.2; RanGTP-Imp inh: -2.3

How did CC(=O)N1CCN(S(=O)(=O)c2cccc(C(=O)NCCc3ccc(Cl)cc3)c2)CC1 do in these assays?
LANA-H2B inh: 2.1; T cruzi repl: 9.6; Calb FLC: -6.4; A1 inh: 0.5; Beta cell apopt: 3.0; UCH37 inh: -0.2; B2AR ag: 4.8

What do the screens show for `CCCCn1c(SCC(=O)Nc2cc(C)on2)nnc1-c1ccco1`?
LANA-H2B inh: 2.0; T cruzi repl: -5.4; Calb FLC: 3.9; A1 inh: -0.8; Beta cell apopt: 4.8; UCH37 inh: 2.5; B2AR ag: -5.6; RanGTP-Imp inh: 0.8

Results for C/C(CC(=O)Nc1ccccn1)=N\NC(=O)c1cccc(C)c1 ?
LANA-H2B inh: -1.8; T cruzi repl: -16.0; Calb FLC: 4.8; A1 inh: -0.1; Beta cell apopt: -5.5; B2AR ag: 1.4; RanGTP-Imp inh: 1.5

What do the screens show for `CC1=NN(C(=O)COc2ccc(C)c(C)c2)C(O)(c2ccccc2)C1` (stereo unspecified)?
LANA-H2B inh: -3.5; T cruzi repl: 5.7; Calb FLC: 8.0; A1 inh: -0.9; Beta cell apopt: -1.0; UCH37 inh: 1.2; B2AR ag: 20.2; RanGTP-Imp inh: 22.0*

Results for COc1ccccc1N1C(=O)c2ccc(C(=O)Nc3ccc(F)cc3)cc2C1=O ?
LANA-H2B inh: 1.9; T cruzi repl: -18.4; Calb FLC: -3.9; A1 inh: -2.5; Beta cell apopt: 2.8; UCH37 inh: 0.3; B2AR ag: -6.0; RanGTP-Imp inh: -3.5

What do the screens show for `Cc1cc(N(CC(=O)O)S(C)(=O)=O)ccc1Br`?
LANA-H2B inh: -1.6; T cruzi repl: 4.2; Calb FLC: -11.5; A1 inh: 0.7; Beta cell apopt: -0.7; UCH37 inh: 2.4; B2AR ag: 7.8; RanGTP-Imp inh: 4.0

Results for CC(C)Cn1c(SC(C)C(=O)NCC2CCCO2)nc2ccc(Cl)cc2c1=O (stereo unspecified) ?
A1 inh: -0.2; Beta cell apopt: -0.8; UCH37 inh: 1.5; B2AR ag: -0.6

Results for CCOC(=O)c1ccccc1NS(=O)(=O)c1ccc(C)cc1 ?
LANA-H2B inh: -1.8; T cruzi repl: 1.1; Calb FLC: 11.1; A1 inh: 0.2; Beta cell apopt: -6.9; UCH37 inh: -0.2; B2AR ag: 1.4; RanGTP-Imp inh: -0.8

How did Cc1sc2ncnc(NCc3ccccc3)c2c1C do in these assays?
LANA-H2B inh: 0.9; T cruzi repl: 16.4; Calb FLC: -3.5; A1 inh: -1.0; Beta cell apopt: 40.6; UCH37 inh: 0.8; B2AR ag: -3.4; RanGTP-Imp inh: 7.7

How did Cc1ccc(NC(=O)C2c3ccccc3Oc3ccccc32)nc1 do in these assays?
LANA-H2B inh: -2.1; T cruzi repl: 19.5; Calb FLC: -16.0; A1 inh: 0.4; Beta cell apopt: 5.4; UCH37 inh: 2.2; B2AR ag: -7.0; RanGTP-Imp inh: -0.4

How did CCCn1cc(CN2CCC(C(=O)Nc3cccc(-c4cscn4)c3)CC2)c(C)n1 do in these assays?
LANA-H2B inh: 0.1; T cruzi repl: -25.9; Calb FLC: 9.5; A1 inh: 0.5; Beta cell apopt: -0.4; UCH37 inh: 1.9; B2AR ag: -2.0; RanGTP-Imp inh: 1.0

Results for O=C(Nc1ccc2c3c(cccc13)CC2)c1cccc([N+](=O)[O-])c1 ?
LANA-H2B inh: -3.0; T cruzi repl: 12.0; Calb FLC: 3.2; A1 inh: 0.1; Beta cell apopt: 8.7; UCH37 inh: 1.8; B2AR ag: 2.8; RanGTP-Imp inh: -0.7

Results for CCCCc1ccc(NS(=O)(=O)c2cccs2)cc1 ?
LANA-H2B inh: 3.3; T cruzi repl: 17.5; Calb FLC: inconclusive; A1 inh: 0.2; Beta cell apopt: 3.8; UCH37 inh: 3.7; B2AR ag: -4.2; RanGTP-Imp inh: 2.5

How did C=CCNC(=O)NC(=O)COC(=O)c1nc2nccc(C)n2n1 do in these assays?
LANA-H2B inh: 2.5; T cruzi repl: -6.2; Calb FLC: 4.4; A1 inh: -0.2; Beta cell apopt: 0.7; UCH37 inh: 2.0; B2AR ag: 0.7; RanGTP-Imp inh: 1.2

Results for Cc1nnc2ccc(-c3ccc(NS(=O)(=O)c4ccc(F)cc4F)cc3)nn12 ?
LANA-H2B inh: -0.7; T cruzi repl: 0.0; Calb FLC: 10.1; A1 inh: -0.5; Beta cell apopt: -0.9; UCH37 inh: 7.3; B2AR ag: 2.0; RanGTP-Imp inh: -0.5

Results for CN(Cc1nccs1)C(=O)CC1C(=O)NCCN1Cc1ccc(-c2ccccc2)cc1 (stereo unspecified) ?
LANA-H2B inh: 3.7; T cruzi repl: -6.5; Calb FLC: 0.8; A1 inh: -0.9; Beta cell apopt: -4.6; UCH37 inh: -0.1; B2AR ag: 6.6; RanGTP-Imp inh: -0.1

Results for O=C(CSc1ccc(C(F)(F)F)cc1[N+](=O)[O-])N1CCOCC1 ?
LANA-H2B inh: -1.6; T cruzi repl: 9.0; Calb FLC: 2.7; A1 inh: 0.3; Beta cell apopt: -6.2; UCH37 inh: 3.0; B2AR ag: -13.2; RanGTP-Imp inh: 5.7

How did CN1/C(=C\C(=O)COC(=O)c2nccnc2N)C(C)(C)c2ccccc21 do in these assays?
LANA-H2B inh: -0.5; T cruzi repl: -1.5; Calb FLC: -0.6; A1 inh: -0.5; Beta cell apopt: -2.3; UCH37 inh: 3.5; B2AR ag: 16.6; RanGTP-Imp inh: 2.4

What do the screens show for `COc1ccc(NC(=O)C(=O)NCCN2CCN(C(=O)c3ccco3)CC2)cc1`?
LANA-H2B inh: 2.7; T cruzi repl: 7.1; Calb FLC: -3.6; A1 inh: 1.5; Beta cell apopt: -5.8; UCH37 inh: 0.4; B2AR ag: -5.5; RanGTP-Imp inh: -0.2

How did CC(C)NC(=O)c1ccc2c3n(nc2c1)-c1ccccc1CO3 do in these assays?
LANA-H2B inh: 2.6; T cruzi repl: 0.5; Calb FLC: -3.0; A1 inh: -12.8; UCH37 inh: -9.5; B2AR ag: -9.8; RanGTP-Imp inh: 3.7

Results for CCn1cc(C(=O)OC)c(=O)c2cc(S(=O)(=O)N(C)C3CCCCC3)ccc21 ?
LANA-H2B inh: 0.6; T cruzi repl: 3.4; Calb FLC: -0.2; A1 inh: -1.1; Beta cell apopt: -4.3; UCH37 inh: 9.1; B2AR ag: -0.3; RanGTP-Imp inh: -0.3

How did CCOC(=O)c1cnc(SC)nc1Oc1cccc(NC(=O)c2cccc(Cl)c2Cl)c1 do in these assays?
LANA-H2B inh: 0.2; T cruzi repl: -0.5; Calb FLC: 0.2; A1 inh: 0.0; Beta cell apopt: 2.2; UCH37 inh: 6.1; B2AR ag: 1.6; RanGTP-Imp inh: 7.9

Results for CN(C)S(=O)(=O)c1cc(NC(=O)[C@H](Cc2ccccc2)N2C(=O)c3ccccc3C2=O)ccc1Cl ?
LANA-H2B inh: 2.7; T cruzi repl: -9.1; Calb FLC: 27.4; A1 inh: -0.2; Beta cell apopt: -0.7; B2AR ag: 0.3; RanGTP-Imp inh: -0.4

How did Cc1ccc(OCc2cc(C(=O)N3CCN(C)C[C@@H]3c3ccccc3)no2)cc1C do in these assays?
LANA-H2B inh: -5.0; T cruzi repl: 10.8; Calb FLC: 11.3; A1 inh: -0.4; Beta cell apopt: 0.7; UCH37 inh: 5.2; B2AR ag: 0.2; RanGTP-Imp inh: 5.2

Results for O=C(OCC(=O)N1CCCC1=O)c1ccc(Cl)cc1[N+](=O)[O-] ?
LANA-H2B inh: 1.9; T cruzi repl: -6.6; Calb FLC: -4.1; A1 inh: -0.1; Beta cell apopt: -3.9; UCH37 inh: -2.4; B2AR ag: -7.9; RanGTP-Imp inh: 1.6

How did COc1ccc(C(=O)CSc2nnc(CN3CCCC3)n2-c2ccc(F)cc2)c(OC)c1 do in these assays?
LANA-H2B inh: -5.2; T cruzi repl: 8.9; Calb FLC: -15.4; A1 inh: 0.4; Beta cell apopt: 0.5; UCH37 inh: 2.7; B2AR ag: -8.2; RanGTP-Imp inh: -2.5

How did CCC(C(=O)NCc1ccco1)N(C(=O)CNS(=O)(=O)c1ccc(F)cc1)c1ccccc1F (stereo unspecified) do in these assays?
LANA-H2B inh: 2.6; T cruzi repl: 5.5; Calb FLC: -0.3; A1 inh: 0.3; Beta cell apopt: -1.4; UCH37 inh: 5.4; B2AR ag: -4.4; RanGTP-Imp inh: 5.8

Results for Cc1cccc(C(=O)NCC(c2ccco2)N2CCc3ccccc32)c1 (stereo unspecified) ?
LANA-H2B inh: 3.2; T cruzi repl: 6.3; Calb FLC: -10.7; A1 inh: 0.5; Beta cell apopt: 8.8; UCH37 inh: 4.7; B2AR ag: 1.0; RanGTP-Imp inh: 4.6

Results for CCC(C)(c1ccc(C=O)s1)c1ccc(C=O)s1 ?
LANA-H2B inh: -0.8; T cruzi repl: 6.3; Calb FLC: 2.5; A1 inh: -0.6; Beta cell apopt: -13.0; UCH37 inh: 7.0; B2AR ag: 7.1; RanGTP-Imp inh: -4.8

How did Cc1nc(C(C)NC(=O)c2cc(COc3ccc(C)c(C)c3)on2)c(C)s1 (stereo unspecified) do in these assays?
LANA-H2B inh: -0.9; T cruzi repl: 7.3; Calb FLC: 6.0; A1 inh: -2.9; Beta cell apopt: -3.2; UCH37 inh: 3.1; B2AR ag: -3.4; RanGTP-Imp inh: 0.5
